# Screens deposited in PubChem BioAssay by several laboratories.
# Autofluor counter: compound fluorescence in toxin protease inhibitor counterscreen. compound autofluorescence counterscreen, microsphere flow cytometry; active compounds read high. fluorescence intensity (test concentration not listed). 360,000 compounds, 3.1% hits. AID 624483;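 active = at least 3 SD above the mean of all compounds, about 16000 in these data; inconclusive = too few beads counted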;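 note: 100 nL of 1 mM stock went into each well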
# Mtb hypoxia rep: inhibitors of hypoxia-regulated fluorescent reporter in Mycobacterium tuberculosis; M. tuberculosis hypoxia-regulated fluorescent reporter, fluorescence; fluorescence inhibition, % (test concentration not listed); 300,000 compounds, 0.1% hits; AID 1159583;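 active = 35 to 45% if threefold the growth effect, above 45% if 1.5-fold the growth effect; inactive = the rest, general growth blockers included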;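 note: wells of about 50 µL received 100 nL stock; 0% = vehicle wells and 100% = reference inhibitor wells; whole bacteria with a GFP reporter of the hypoxia response; strong numbers were not always called active; many hits fall short of the cut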
# Sa ugtP lethal: kills S. aureus RN4220 lacking UgtP; S. aureus RN4220 ugtP deletion, OD600 growth, 16 h; some inactives read as strong as hits; growth inhibition, % (no concentration beside the values); 330,000 compounds, 0.54% hits; AID 1259309;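 active = z-score under -3 and OD600 up to 0.15 on both plates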;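 note: plate controls were untreated wells for no effect and antibiotic for full effect; wells of about 80 µL received 100 nL stock; the first replicate is given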
# Sa RN4220 lethal: kills Staphylococcus aureus RN4220. 330,000 compounds, 0.33% hits. inhibition, % (concentration not given with the values). S. aureus RN4220 growth, OD600, 16 h;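 active = z-score of -3 or lower and OD600 up to 0.18 on both plates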;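 note: plate controls were untreated cells for no effect and reference antibiotic for full effect; stock transfer was 100 nL into about 80 µL; one replicate is shown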
# PrP 5UTR inh: suppresses PrP 5' UTR mRNA reporter expression; cell-based PrP 5' UTR mRNA reporter, plate reader; inhibition, % (test concentration not listed); 340,000 compounds, 0.35% hits;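 active = every replicate at 50% or more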;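 note: 0 = median of the neutral control wells; tested in H4 reporter cells; numbers are from one replicate; inactives centre near -14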
# BJeLR viability: kills HRASV12-expressing BJeLR cells. BJeLR (HRASV12) viability, CellTiter-Glo ATP luminescence, 48 h; reference of the scale not given here. inhibition, % (no concentration beside the values). AID 1554. 300,000 compounds, 0.17% hits;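 active = replicate mean above 50%; inconclusive = above 50% but judged a plate artefact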;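 note: 50 nL library stock added to about 25 µL; numbers are from one replicate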
# Mtb hypoxia rep growth: further read-out of Mtb hypoxia rep, marked with its call; growth inhibition, %; measured here: M. tuberculosis growth (absorbance);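 0% = vehicle and 100% = reference antibiotic; read after six days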
# Active calls of the source: *; ? = inconclusive; . = no result given.
No.	SMILES	Sa ugtP lethal	Mtb hypoxia rep	Autofluor counter	BJeLR viability	Sa RN4220 lethal	Mtb hypoxia rep growth	PrP 5UTR inh
1	O=P(C(c1c[nH]c2ccccc12)N1CCOCC1)(N1CCOCC1)N1CCOCC1 (configuration not stated)	7	.	4633	-5	2.9	.	-28
2	CCCCN(C(=O)c1cccc(S(=O)(=O)N2CCN(C)CC2)c1)c1c(N)n(CC(C)C)c(=O)[nH]c1=O	3	7	?	.	2.5	-4	-21
3	Cc1cccc(NC(=O)CCCCCN2C(=O)c3ccccc3C2=O)n1	21	2	2405	-3	27	2	-10
4	COc1cccc(-c2nnn(CC(=O)Nc3cc(OC)c(NC(=O)c4ccco4)cc3OC)n2)c1	2	3	4318	-21	6.4	9	-19
5	CC/C(=N\NC(=O)c1nnn(-c2nonc2N)c1-c1cccs1)c1ccccc1	.	.	5535	18	.	.	-8
6	COc1ccc(C(=O)N/N=C/c2ccccc2C(=O)O)cc1OC	.	.	?	15	.	.	-4
7	Cc1ccc(NC2SC(=O)N(Cc3cccc(C(=O)O)c3)C2=O)c(C)c1 (configuration not stated)	0	6	.	-8	0.9	5	-8
8	COc1cccc(/C(C)=N/NC(=O)Cc2c(C)[nH][nH]c2=O)c1	.	.	2644	-2	.	.	-25
9	CCOc1cc(/C=N/NC(=O)CCCC(=O)NC2CCCCC2)ccc1O	.	.	2016	4	.	.	9
10	Cc1ccc(S(=O)(=O)N2CCN=C2SCc2ccccc2)cc1	0	4	2456	-8	12	4	-11
11	O=C(Nc1c2c(nn1-c1ccc([N+](=O)[O-])cc1)CS(=O)(=O)C2)c1ccccc1F	2	9	5464	-9	3.2	-1	-7
12	CCCC(O)(CCN1CCOCC1)c1ccc(Cl)cc1 (configuration not stated)	-1	-3	3948	-13	2.4	6	-22
13	Cc1[nH]c2ccc(C(=O)NCCN3CCCCCC3)cc2c1C	-1	3	6798	-2	2.3	0	-5
14	CN(C)S(=O)(=O)N1CCN(S(=O)(=O)c2ccccc2)CC1	-6	4	20194*	3	6.4	11	10
15	CCOc1ccc(OCCCC(=O)ON=C(N)c2ccccc2Cl)cc1	12	0	2946	.	4.6	-4	-16
16	COc1ccc(C2c3c(-c4ccccc4)n[nH]c3C(=O)N2c2ccc(C(=O)O)cc2)cc1 (configuration not stated)	4	0	4732	5	3.2	3	-3
17	COc1ccccc1/C=C/C(=O)NCC(=O)NN=Cc1ccc(C)o1	6	4	.	.	5.7	-1	.
18	COc1cc(CNS(=O)(=O)c2ccc3c(c2)CC(C)N3C(=O)C2CCC2)cc(OC)c1OC (configuration not stated)	.	.	5551	9	.	.	-46
19	C=CCOC(=O)C1=C[C@H](c2csc3ccccc23)C[C@H](OCCCCO)O1	.	.	2936	-3	.	.	-6
20	O=[N+]([O-])c1ccc(N2CCNCC2)cc1NCc1ccco1	15	4	2330	5	2.1	1	-17
21	Cc1cc(NC(=O)c2ccccc2)n(-c2ccccc2)n1	7	5	8584	.	2.7	5	-19
22	Nc1nc(NC(=O)c2cccs2)nn1-c1ccccc1	3	3	3513	0	3.2	-3	-42
23	Cc1cc(N2C(=O)CCC2=O)n(-c2ccccc2)n1	0	-86	4181	-4	-0.9	-15	-26
24	COC(=O)c1ccc(NC(=O)C2C3C=CC(O3)C2C(=O)O)cc1 (configuration not stated)	-5	-4	3155	3	9.2	1	-20
25	Nc1nnc(SCC(=O)NCCNC(=O)CSc2nnc(N)s2)s1	.	.	5889	-14	.	.	-5
26	CC[C@@]12C(=O)N(c3cccc(Br)c3)C(=O)N1[C@H](c1ccc(Cl)cc1)[C@@H]1C(=O)N(C3CCCCC3)C(=O)[C@@H]12	.	.	3816	3	.	.	-18
27	Cc1ccc(S(=O)(=O)N2C(=O)CCC2C(=O)N2CCCCC2)cc1 (configuration not stated)	8	18	4194	-6	4.6	4	-3
28	CCCC(=O)Nc1ccc(C#Cc2ccccc2)cc1	1	8	18787*	-9	12	10	-68
29	Cc1cc(N)n(-c2ccccn2)n1	3	18	3772	-4	1.6	10	42
30	Cc1cccc(C(=O)NCc2nnc(SCC(=O)NC3CCCC3)n2C)c1	6	-8	5625	-8	-2.8	-10	-7
31	O=C(O)CCNC(=O)/C(=C/C=C/c1ccccc1)NC(=O)c1ccccc1	4	4	2480	0	6.0	-2	4
32	Cc1cc2c(s1)c1cnn(-c3ccccc3)c(=O)c1n2C	2	-6	3038	.	6.1	-2	-6
33	O=C(/C=C/c1ccc(O)cc1)c1c(O)cc(O)cc1O	7	.	5352	-1	2.5	.	-12
34	CCNC(=S)Nc1sc2c(c1C#N)CCC(C)C2 (configuration not stated)	15	-2	.	-4	3.9	13	-16
35	COc1ccc(NS(=O)(=O)c2ccc(N3CCOCC3)c(NC(=O)c3ccccc3Cl)c2)cc1	-6	8	2443	-13	5.6	10	-16
36	C/C(=N\Nc1cccc2cccnc12)c1ccccc1O	.	.	4567	6	.	.	-97
37	CCOC(=O)Cc1cc(=O)[nH]c(/N=C(\N)Nc2ccc(C)c(C)c2)n1	.	.	4193	-1	.	.	-20
38	CCCSc1nc2cc(C)c(C)cc2n1CC(C)O (configuration not stated)	1	14	2672	0	6.9	0	-19
39	CCn1c(SCC(=O)Nc2cccc(C)c2)nc2nc3c(cc2c1=O)COC(C)(C)C3	-4	5	4652	10	4.2	10	-24
40	CCOC(=O)c1c(C)oc2c1c(C=NC1CCS(=O)(=O)C1)c(O)c1ccccc12 (configuration not stated)	-4	0	9491	-2	1.5	5	0
41	O=C(C1CCN(c2ccc(N3CCOCC3)nn2)CC1)N1CCN(c2ccc(F)cc2)CC1	6	0	22313*	-26	5.8	7	-7
42	CCCCn1c(N)c(N(CCOC)C(=O)COC(=O)COc2cccc(C(C)=O)c2)c(=O)[nH]c1=O	-5	2	6271	-1	0.5	-10	-22
43	Cc1ccc(C(=O)Nc2ccc(N3CCOCC3)c3nonc23)cc1[N+](=O)[O-]	-11	11	4281	5	6.9	6	4
44	COCCNC(=O)CN(C(=O)Cn1nnc2ccccc21)c1ccc(C)c(F)c1	2	-8	3967	-2	1.4	6	3
45	O=C(Nc1cccc(-c2nn[nH]n2)c1)c1ccc(Cl)s1	-3	6	5755	3	2.3	4	-14
46	CCC1(C(=O)OC)NC(c2cccc(F)c2)C2C(=O)N(C)C(=O)C21 (configuration not stated)	1	-78	3076	-2	-1.0	-16	5
47	CCCn1nnc(NC(=O)c2sc3ccccc3c2Cl)n1	12	7	9723	-20	9.5	-2	-38
48	CC(C)c1ccccc1OCCCCCNCCO	7	4	9941	1	6.8	-2	-6
49	O=C(NCc1ccco1)c1ccc2c(=O)n(-c3ccccc3)c(=S)[nH]c2c1	-12	1	10122	-2	-2.1	4	-3
50	Cc1cc(C(=O)NCc2cc(F)cc3c2OCOC3)nn1C	5	8	4990	-8	3.2	13	-12
51	CCc1ccccc1OCc1nnc(N)s1	-2	.	2647	-1	6.0	.	2
52	COc1ccccc1-n1c(SCC(=O)N(C)C2CCS(=O)(=O)C2)nc2ccccc2c1=O (configuration not stated)	-2	5	8856	0	1.6	12	-30
53	Cc1ccc(CC(=O)NCC(C)C)cc1	8	17	22914*	-2	0.4	4	-15
54	O=C(NCCCn1ccnc1)/C(=C/c1cccnc1)NC(=O)c1ccco1	6	3	3212	-1	1.5	4	-26
55	COc1ccccc1/C=C\C(=O)NCC(=O)N/N=C(/C)c1cccc([N+](=O)[O-])c1	.	.	3827	-16	.	.	-13
56	NC(=NNC(=O)c1sccc1OCc1ccc(Cl)cc1Cl)c1ccccn1	-7	5	.	.	7.3	5	.
57	Cc1cc(C(=O)OCC(=O)Nc2c(F)cccc2F)c(C)n1-c1ccccc1	-2	4	4860	17	1.6	-1	-63
58	CN(C)S(=O)(=O)Nc1cccc(NC(=O)CC23CC4CC(CC(C4)C2)C3)c1	.	.	4285	-4	.	.	-20
59	C=CCNC(=S)NN=Cc1cccc([N+](=O)[O-])c1	0	-6	.	.	2.1	-5	.
60	COc1ccc(S(=O)(=O)NCc2ccccc2Cl)cc1OC	-10	11	2962	-3	-8.4	4	-11

# Next compounds
No.	SMILES	Sa ugtP lethal	Mtb hypoxia rep	Autofluor counter	BJeLR viability	Sa RN4220 lethal	Mtb hypoxia rep growth	PrP 5UTR inh
61	Cc1cc(C)c[n+](C(C)C(=O)c2ccc(Cl)cc2)c1 (configuration not stated)	2	-3	.	4	2.3	-4	-11
62	COCCNC(=O)CCc1c(C)nc2c(c(C)nn2-c2ccc(C)cc2)c1C	4	14	3195	5	2.5	8	-11
63	CCOC(=O)c1ccc(NC(=O)CN2C(=O)C(C)SC(C)C2=O)cc1 (configuration not stated)	6	-16	2198	-1	0.5	-7	-15
64	Cc1ccc(C(=O)NC(=S)NNC(=O)c2ccccc2[N+](=O)[O-])cc1	-14	.	2648	.	27	.	-27
65	CC(C)C(=O)N1CCN(c2nc(-c3ccccc3)c3c(c2C#N)CCCC3)CC1	-29	0	10343	-2	3.7	6	-11
66	CC1CCc2nc3ccc(S(=O)(=O)N4CCC(C(=O)O)CC4)cc3c(C(=O)O)c2C1 (configuration not stated)	5	8	5712	-6	0.7	-1	-3
67	O=C1C2C3C=CC(CC3)C2C(=O)N1/N=C/c1c[nH]c2ccccc12 (configuration not stated)	.	.	4730	-3	.	.	-39
68	COc1ccc(NC(=O)CC(C)NCCCN2CCCC2=O)cc1 (configuration not stated)	-1	-1	3910	-10	1.3	2	-21
69	CCOc1ccc(OCC(=O)OCn2c(SC)nnc(C)c2=O)cc1	8	17	1982	-18	5.4	4	-6
70	Cc1cccc(CN2C(=O)CSc3ccc(C(=O)NC4CC4)cc32)c1	9	-2	3484	-1	-0.9	4	5
71	Cc1cc(NS(=O)(=O)c2ccc(NC(=O)C(C)Oc3ccc(C(C)C)cc3)cc2)no1 (configuration not stated)	.	.	4086	-9	.	.	-20
72	CS(=O)(=O)/C(C#N)=C/c1cccn1S(=O)(=O)c1ccccc1	3	6	3135	-5	6.7	-3	-7
73	CC1CCC(C(C)C)C(OCC(O)CNC(C)C)C1 (configuration not stated)	2	13	4172	0	5.1	8	-3
74	COc1ccc(Cl)cc1Nc1cc(C)nc2nc(C)nn12	4	.	4487	-10	1.3	.	-28
75	C=Cn1ccnc1P(=S)(c1nccn1C=C)c1nccn1C=C	-8	7	9203	10	-1.0	8	-14
76	O=C(/C=C\c1ccco1)Nc1ccc(N2CCN(C(=O)c3ccccc3)CC2)cc1	-12	0	2049	-4	2.4	11	-41
77	O=C(COc1cccc2ccccc12)N/N=C/c1ccc(Sc2nc3ccccc3s2)o1	.	.	9480	-1	.	.	-16
78	O=C(N/C(=C/c1ccc(F)cc1)C(=O)N1CCCC1)c1ccccc1	12	6	6020	2	3.2	0	-11
79	COc1ccccc1CCCNC(=O)C1CCC(=O)N(Cc2ccccc2F)C1 (configuration not stated)	8	2	4808	4	3.6	-2	-47
80	Cc1cc(NC(=O)CSc2n[nH]c(-c3ccccc3Br)n2)no1	-11	5	3098	.	-1.1	-4	-15
81	CCOc1ccc(C(=O)N2CCN(c3cnn(-c4ccccc4)c(=O)c3Cl)CC2)cc1	5	6	2569	-2	8.9	1	-7
82	Cc1cc(/C=C2\Sc3ccccc3N2C)cc(C)[n+]1CC1CCCO1 (configuration not stated)	101*	.	5172	.	100*	.	-14
83	Cc1cccc(N2CCN(C(=O)C3CCN(S(=O)(=O)N4CCOCC4)CC3)CC2C)c1 (configuration not stated)	1	0	4354	6	-0.8	1	-5
84	CCOC(=O)C1=C(C)OC(N)=C(C#N)C1c1ccc(C)s1 (configuration not stated)	-4	16	4665	-2	6.3	12	-17
85	Cc1cccc(C)c1NC(=O)CNC(=O)C1CCCC1	3	10	.	.	2.2	5	.
86	CS(=O)(=O)Oc1ccc(/C=C2\C(=N)N3N=C(CC(=O)N4CCOCC4)SC3=NC2=O)cc1Cl	2	9	5387	-4	4.5	2	-17
87	O=C(OCN1C(=O)c2ccccc2C1=O)c1cccc(S(=O)(=O)N2CCOCC2)c1	4	20	5950	-2	1.6	5	-9

# Compounds were not picked by outcome; overall some 4% were active at least once.
